KCNQ2 block = KCNQ2 potassium channel inhibitors, primary screen, cell-based, CHO-K1, FluxOR thallium flux, B-score (AID 2156); 20 min; active compounds read low; only compounds with negative scores are shown here; some inactives read as strong as hits; B-score at 10 µM; 310,000 compounds, 1.1% hits;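 active means fluorescence ratio B-score at most minus 3 library SDs, with starting brightness B-score within 2 library SDs, cut at about -5.5 in these data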
Target sequence (O88943 whole entry, looked up): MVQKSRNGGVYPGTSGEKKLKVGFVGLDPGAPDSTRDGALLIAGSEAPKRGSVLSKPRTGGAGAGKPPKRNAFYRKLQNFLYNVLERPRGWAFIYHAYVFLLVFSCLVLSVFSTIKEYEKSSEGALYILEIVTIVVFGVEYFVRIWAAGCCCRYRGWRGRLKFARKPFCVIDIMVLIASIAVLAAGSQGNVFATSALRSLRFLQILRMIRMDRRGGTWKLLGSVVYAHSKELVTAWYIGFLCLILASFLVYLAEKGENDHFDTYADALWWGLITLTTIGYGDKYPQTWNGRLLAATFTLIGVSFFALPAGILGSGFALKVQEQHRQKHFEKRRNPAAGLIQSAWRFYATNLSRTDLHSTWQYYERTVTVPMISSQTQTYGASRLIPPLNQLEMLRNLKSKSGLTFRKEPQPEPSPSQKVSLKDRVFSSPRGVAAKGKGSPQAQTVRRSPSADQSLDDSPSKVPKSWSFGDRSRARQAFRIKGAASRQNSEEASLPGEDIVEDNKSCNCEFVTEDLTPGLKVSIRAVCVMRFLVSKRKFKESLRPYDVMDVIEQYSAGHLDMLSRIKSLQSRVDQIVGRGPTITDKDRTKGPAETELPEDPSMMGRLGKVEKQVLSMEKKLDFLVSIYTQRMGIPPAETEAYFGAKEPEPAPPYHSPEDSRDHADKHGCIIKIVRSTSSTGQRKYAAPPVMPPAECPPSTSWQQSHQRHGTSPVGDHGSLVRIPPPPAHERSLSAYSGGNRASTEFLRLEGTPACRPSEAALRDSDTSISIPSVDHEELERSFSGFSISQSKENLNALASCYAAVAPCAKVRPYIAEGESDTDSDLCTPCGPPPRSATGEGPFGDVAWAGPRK
KCNQ2 block baseline = recorded beside KCNQ2 block, whose call it bears; B-score; measured here: initial fluorescence intensity artifact check;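 brightness before thallium and not channel activity; 0 = typical well and far values either way flag optical interference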
An asterisk follows results filed as active; i = inactive. A portion of the library, so the mix of outcomes need not match the whole.

The line under a structure holds: KCNQ2 block	KCNQ2 block baseline
CCC[C@H](CN[C@@H](CNC)[C@H](C)CC)NCCc1cc(C(F)(F)F)cc(C(F)(F)F)c1
    i	0.3
Cc1nn(-c2cccc3cccnc23)c(=O)c2ccccc12
    i	-1.34
N#C/C(=C/c1ccc(N2CCCCCC2)o1)c1ccc(F)cc1
    -7.01*	2.48*
CCOC(=O)c1cc2c(C(F)(F)F)cc(-c3cccnc3)nc2o1
    i	1.3
COc1cccc(OCCSc2nc(C)c(Cc3ccccc3)c(=O)[nH]2)c1
    i	1.93
Cc1ccc(Nc2nnc(-c3ccncc3)s2)c(Br)c1
    i	3.19
Cc1cc(C(=O)NCc2ccccc2Cl)n(-c2ccccc2)n1
    i	-1.42
O=C(CN1c2ccccc2S(=O)(=O)c2ccccc21)Nc1ccccc1F
    i	-0.27
O=C(Cc1ccccc1)Nc1ccc(NC(=O)c2ccc(Br)cc2)cc1
    i	0.25
O=S(=O)(Cc1cc(Cl)nc(-c2ccccc2)n1)c1ccccc1
    i	-0.27
CN(C)C(=O)C1Cc2ccccc2CN1S(=O)(=O)c1cccs1 (stereo unspecified)
    i	-0.13
CC(=O)c1c(C)[nH]c(C(=O)OCC(=O)Nc2sc3c(c2C#N)CCC(C)C3)c1C (stereo unspecified)
    i	-1.2
Cc1ccc(C)c(-c2ccc(=O)n(Cc3c(F)cccc3Cl)n2)c1
    i	-1.78
CC(C)CN(CC(C)C)c1nnc(NC(=O)Cn2c(=O)oc3ccccc32)s1
    i	-1.58
O=C1CS(=O)(=O)c2ccccc2N1
    i	-1.11

Later entries.
The line under a structure holds: KCNQ2 block	KCNQ2 block baseline
O=C(/C=C/c1cn(-c2ccccc2)nc1-c1cccc(Cl)c1)N1CCN(c2ccccn2)CC1
    -5.68*	-0.12*
O=C(COc1ccccc1)Nc1ccc(Cl)cn1
    i	0.18
CCOC(=O)n1c(=O)n(Cc2ccc(Cl)cc2Cl)c2ccccc21
    i	1.44
Cc1c(N=C2NN=C(c3ccc(Cl)cc3)CS2)c(=O)n(-c2ccccc2)n1C
    i	0.12
CN(CC(=O)NCc1ccc(F)cc1)S(=O)(=O)c1cccc2nsnc12
    i	0.48
O=C(C1CCCCC1)N1CCCC(c2nc(-c3ccc(F)cc3)no2)C1 (stereo unspecified)
    i	-0.94
Cc1ccc(S(=O)(=O)NCc2ccco2)c(C)c1C
    i	1.41
CC(=O)c1c(O)cc(C)n(Nc2nc(C)cc(C)n2)c1=O
    i	-1.22
O=C(N/N=C/c1ccccc1)c1ccc(-c2ccccc2)cc1
    i	0.58
Cc1ccc(OCCCC(=O)Nc2ccc(N3CCOCC3)cc2)cc1
    i	0.56
CCOC(=O)CN(C(=O)CSc1nnc(-c2ccc(OC)c(OC)c2)o1)c1ccccc1
    i	0.79
COc1ccc(-n2c(Cc3cccn3C)nnc2SCC(=O)N2CCCc3ccccc32)cc1
    i	-1.48
O=C(O)c1ccccc1SCC(=O)N1CCCCC1
    i	2.08
CCOC(=O)c1cc(=O)n(-c2ccc(Cl)cc2C)[nH]1
    i	1.6
C=CCOC(=O)C1=C[C@H](c2ccc(Br)cc2)C[C@H](OCc2ccc(CO)cc2)O1
    i	0.58

(listing goes on)
The line under a structure holds: KCNQ2 block	KCNQ2 block baseline
Brc1cccc(CNCc2cccs2)c1
    i	-0.02
Cc1ccc(S(=O)(=O)N(C(=O)c2ccncc2)c2ccc(OC(=O)c3ccncc3)c3ccccc23)c(C)c1
    i	-0.51
Cc1ccc(N(CC(=O)NCCSc2ccccn2)S(=O)(=O)c2ccc(F)cc2)cc1
    i	-0.83
COCCNC(=O)C1CC2Cn3c(nc4cc(C)c(C)cc43)C2N1C (stereo unspecified)
    i	3.45
S=C1NCN(Cc2ccco2)CN1c1cccc2ccccc12
    i	0.59
Cc1cc(NCCCCO)n2c(nc3ccccc32)c1C#N
    i	1.39
CN(C(=O)C1CCC1C(=O)O)c1nc(-c2ccc(Cl)s2)cs1 (stereo unspecified)
    i	-0.41
CCN(Cc1ccccc1)C(c1ccc(C)cc1)c1nnnn1C(C)(C)C (stereo unspecified)
    -10.5*	0.98*
Cc1nc(CC(=O)c2c(C)cc(O)cc2O)cs1
    i	0.01
CN(Cc1c(F)cccc1Cl)C(=O)CCc1c[nH]c2ccccc12
    i	0.1
O=C(/C=C/c1cccc(OCc2ccccc2)c1)c1cccnc1
    -6.76*	0.18*
O=S(=O)(c1cccc(-c2nnc(SC(F)F)n2-c2ccccc2)c1)N1CCCCC1
    i	0.06
C=C1/C(=C\C=C2/CCC[C@]3(C)[C@@H]([C@H](C)CCCC(C)(C)O)CC[C@@H]23)C[C@@H](O)C[C@@H]1O
    i	-0.46
CCCOc1ccc(C2C(=O)N(C3CCCCC3)CC(=O)N2CCCOCC)cc1OC (stereo unspecified)
    i	-1.49
Cc1ccc(C(C)C)c(OCCn2ccnc2C)c1
    i	1.48

Later entries
The line under a structure holds: KCNQ2 block	KCNQ2 block baseline
CC1CCN(c2ccccc2NC(=O)c2cc3ccccc3o2)CC1
    i	-2.26
CCO[C@@H]1OC(C(=O)NC2CC2)=C[C@H](c2coc3ccccc3c2=O)[C@H]1CCCO
    i	1.44
Cc1ccc(C)c(NC2CCCCC2NS(=O)(=O)c2ccccc2)c1 (stereo unspecified)
    i	0.16
CCCC(=O)c1c(NCCO)cc(C)oc1=O
    i	0.44
N#C/C(=C(/O)CCl)c1nc2c(s1)CCc1ccccc1-2
    i	-0.48
Cc1noc(C)c1CSCC(=O)Nc1cc(C(F)(F)F)ccc1N1CCCCC1
    i	-2.48
Cn1c(Cn2nnc3ccccc32)nnc1SCC(=O)Nc1ccc2c(c1)OCO2
    i	1.72
CN1CCN(CCCNC(=O)c2ccc(/C=C3\Sc4ccccc4N(Cc4ccccc4F)C3=O)cc2)CC1
    i	-0.66
O=c1c2c3c(sc2ncn1-n1cccc1)CCCCC3
    i	-0.15
C=CCS(=O)(=O)N1CCC(CCOc2ccccc2)(C(=O)OCC)CC1
    i	-0.18
Cc1ccc(Cc2cnc(NC(=O)/C(C#N)=C/c3ccc(-c4ccc([N+](=O)[O-])cc4)o3)s2)cc1
    i	0.55
Cc1cc(C)n2nc(CNS(=O)(=O)c3ccc(C)c(C)c3)nc2n1
    i	-1.1
CC(C)C(NC(=S)NCc1ccccc1)C(=O)O (stereo unspecified)
    i	1.75
O=[N+]([O-])c1ccccc1CSc1ccccn1
    i	-1.16
CN1CCCC(OC(=O)COc2ccc(Br)cc2)C1 (stereo unspecified)
    i	1.19

Further results follow.
The line under a structure holds: KCNQ2 block	KCNQ2 block baseline
O=C(N/N=C/C1CC=CCC1)c1ccccc1O (stereo unspecified)
    i	0.07
CCOC(=O)C1C(=O)NC(N2CCN(Cc3ccccc3)CC2)=NC1c1ccco1 (stereo unspecified)
    i	2.05
Cn1ncc([N+](=O)[O-])c1C(=O)N/N=C/c1c[nH]c2ccccc12
    i	-1.94
O=C(CSc1nnc(C2CC2)n1-c1ccccc1)NCCN1C(=O)CSC1=O
    i	2.82
CSc1ccc(Cl)c(C(=O)OCC(=O)NCC(C)C)c1
    i	-2.16
Cn1c2c(c(=O)n(C)c1=O)C1(C(=O)Nc3ccccc31)C(C#N)=C(N)O2 (stereo unspecified)
    i	-0.4
CCN(c1ccccc1)S(=O)(=O)c1ccc2[nH]cc(C(=O)N3CCOCC3)c(=O)c2c1
    i	-1.97
COc1ccccc1COCC(O)CNCCc1ccc(C(F)(F)F)cc1 (stereo unspecified)
    i	1.31
O=C(Nn1cnnc1)c1cc(-c2ccccn2)nc2ccccc12
    i	-1.53
O=S(=O)(c1cccs1)N1CCN(c2cccc(Cl)c2)CC1
    i	-0.92
COc1cc(OC)nc(Oc2cc(C=O)ccc2OC)n1
    i	-3.28
CC(=O)Nc1ccc(CN2CCN(C3CCCCC3)C(CCO)C2)cc1 (stereo unspecified)
    i	0.76
O=C(N/N=C/C(Br)=C/c1ccccc1)c1n[nH]c2c1CCC2
    i	0.11
COc1cc2c(cc1OC)N1C(=O)CC(OCC(=O)O)C3C4CC5(CCN5C(=O)C4=O)C2C31 (stereo unspecified)
    i	0.36
COC(=O)[C@@H](NC(=O)O[C@@H]1C(=O)c2ccc(OC)cc2O[C@H]1c1cccc(C(F)(F)F)c1)C(C)C
    i	1.01

Quoted at random: three compounds from above
The line under a structure holds: KCNQ2 block	KCNQ2 block baseline
CN1CCCC(OC(=O)COc2ccc(Br)cc2)C1 (stereo unspecified)
    i	1.19
CN1CCN(CCCNC(=O)c2ccc(/C=C3\Sc4ccccc4N(Cc4ccccc4F)C3=O)cc2)CC1
    i	-0.66
COc1ccccc1COCC(O)CNCCc1ccc(C(F)(F)F)cc1 (stereo unspecified)
    i	1.31

Structures above that contain a thiophene ring, fused or not:
The line under a structure holds: KCNQ2 block	KCNQ2 block baseline
CN(C)C(=O)C1Cc2ccccc2CN1S(=O)(=O)c1cccs1 (stereo unspecified)
    i	-0.13
CC(=O)c1c(C)[nH]c(C(=O)OCC(=O)Nc2sc3c(c2C#N)CCC(C)C3)c1C (stereo unspecified)
    i	-1.2
Brc1cccc(CNCc2cccs2)c1
    i	-0.02
CN(C(=O)C1CCC1C(=O)O)c1nc(-c2ccc(Cl)s2)cs1 (stereo unspecified)
    i	-0.41
O=c1c2c3c(sc2ncn1-n1cccc1)CCCCC3
    i	-0.15
O=S(=O)(c1cccs1)N1CCN(c2cccc(Cl)c2)CC1
    i	-0.92

(further entries)
The line under a structure holds: KCNQ2 block	KCNQ2 block baseline
Nc1nc(-c2ccccc2)cc(C(F)(F)F)n1
    i	-0.03
Cc1ccc2[nH]c(=O)c(CN(CCCN(C)C)C(=O)Nc3ccc(Cl)cc3)cc2c1
    i	2.57
COc1cccc(CN2C(=O)c3cccc(N)c3C2=O)c1
    i	4.86
CC(C)(C)c1ccc(-c2cnco2)cc1
    i	0.92
CCOC(=O)c1ccc(NC(=O)CSc2nnc(COc3ccccc3)n2C)cc1
    i	-2.38
COc1ccc(NC2CCCN(C(=O)CCc3scnc3C)C2)cc1 (stereo unspecified)
    i	1.81
Clc1ccccc1OCCn1cnc2ccccc21
    i	-0.15
CC(C)(CNC(=O)c1cccc(NS(=O)(=O)c2ccc(Br)cc2)c1)N1CCOCC1
    i	-1.86
COC(=O)c1ccccc1S(=O)(=O)N1CCC(C(=O)N(C)CCOc2ccccc2)CC1
    i	0.88
Oc1c(C(c2ccc(Cl)cc2)N2CCCC2)cc(Cl)c2cccnc12 (stereo unspecified)
    i	3.15
Cc1cc(C(=O)CS(=O)(=O)c2ccc(F)cc2)cc(C)c1O
    i	-1.33
CC(C)c1ccccc1NC(=O)Cn1c(/C=C/c2ccccc2)nc2ccccc21
    i	-0.7
COc1cc(NC(=S)Nc2ccc3c(c2)OCCO3)cc(OC)c1OC
    i	0.49
O=C(NC(=S)Nc1ccccc1C(=O)O)c1ccc(-c2ccc(Br)cc2)o1
    i	0.08
Cc1cccc(NS(=O)(=O)c2ccc(Br)s2)n1
    i	0.18

The list goes on.
| mol | KCNQ2 block | KCNQ2 block baseline |
| --- | --- | --- |
| COCCNCCOc1ccc(C)cc1[N+](=O)[O-] | i | 0.08 |
| CCCNC(=O)COC(=O)c1ccccc1OCC(=O)Nc1ccc(Br)cc1 | i | -0.12 |
| Cc1cc(C)cc(NC(=O)CC23CC4CC(C2)CC(n2nnc(C)n2)(C4)C3)c1 | i | -0.05 |
| CC(C)n1cc(CN2CCC(Oc3ccc(C(=O)N4CCCCC4)cc3)CC2)cn1 | i | 1.34 |
| O=C(NCc1ccc2c(c1)OCO2)C(=O)NCC1OCCN1S(=O)(=O)c1ccc(Cl)cc1 (stereo unspecified) | i | 0.63 |
| CCN(CC)CCNC(=O)C1CCN(S(=O)(=O)c2c(C)noc2/C=C/c2ccccc2F)CC1 | i | 1.45 |
| FC(F)(F)c1cnc(N2CCCN(C(=S)Nc3ccccc3)CC2)c(Cl)c1 | i | 0.31 |
| CC(=O)NNC(=S)NC(=O)c1ccc(C)cc1 | i | 0.48 |
| CCN(CC)S(=O)(=O)c1cc(C)c(C)cc1OCC(=O)NC1CCCC1 | i | -0.06 |
| COCc1ccc(CN2CCCC(CCC(=O)NCc3cccc(OC)c3)C2)o1 (stereo unspecified) | i | -0.18 |
| CC(=O)c1cccc(NC(=O)C2CCN(S(C)(=O)=O)CC2)c1 | i | -1.54 |
| CCn1nccc1C(=O)Nc1nc2ccccc2n1CCN1CCCCC1 | i | 0.25 |
| Nc1c(C(=O)Nc2ccc3c(c2)OCCO3)nnn1Cc1ccc(Cl)cc1 | i | -0.18 |
| CCc1ccc(NS(=O)(=O)c2c(C)noc2C)cc1 | i | 0.93 |
| CCOC(=O)c1sc2nc(C)nc(N3CCCCC3C)c2c1C (stereo unspecified) | i | -1.18 |
| O=C(Nc1cccc(Cl)c1)N1CCN(c2ncccn2)CC1 | i | -0.26 |
| CCc1nnc(NS(=O)(=O)c2ccc(NC(=O)c3cc4ccccc4oc3=O)cc2)s1 | i | -1.56 |
| Cc1ccccc1C(=O)NC[C@@H]1CCCN2CCCC[C@H]12 | i | 1.91 |
| Cc1ccc(C(=O)N(Cc2ccccc2)C(C)(C)C)cc1C | i | -1.4 |
| COc1ccc(S(=O)(=O)N(C)c2ccc(C(=O)N3CCCC3)cc2)cc1OC | i | 0.56 |
| COc1ccc2[nH]c3c(=O)n(Cc4ccco4)cnc3c2c1 | i | -0.65 |
| CSCCC1COC(c2cccs2)=N1 (stereo unspecified) | i | -0.09 |
| COc1cccc(-c2nc(NCc3ccco3)c3ccccc3n2)c1O | i | 2.73 |
| COc1cccc(C(=O)CSc2nnc(-c3cc(OC)c(OC)c(OC)c3)o2)c1 | i | 0.81 |
| COc1cc2[nH]c(=O)n(CCCCCC(=O)N3CCN(c4ccccc4)CC3)c(=O)c2cc1OC | -8.27* | -2.41* |

Going on with the list:
| mol | KCNQ2 block | KCNQ2 block baseline |
| --- | --- | --- |
| O=C1N/C(=C/c2ccc(Br)s2)C(=O)N1c1ccccc1 | i | -1.39 |
| COc1ccc(CCNC(=O)CCC(=O)N2CCN(S(=O)(=O)c3ccc(Cl)cc3)CC2)cc1OC | i | -1.45 |
| Cc1[nH]c(C)c(S(=O)(=O)N2CCCCC2C)c1C(=O)N1CCCC1 (stereo unspecified) | i | -2.43 |
| COc1ccc(C(=O)NCCCn2ccnc2)cc1[N+](=O)[O-] | i | 4.06 |
| O=C1c2ccccc2C(=O)N1C/C=C/CN1C(=O)c2ccccc2C1=O | i | -0.14 |
